Source: PubChem BioAssay
D2 potentiator = Beta-Arrestin HTS for Positive Allosteric Modulators of the Human D2 Dopamine Receptor: Potentiators; potentiation, % (test concentration not listed); DiscoveRx D2 beta-arrestin cells, luminescence, 90 min; 100% = 57 uM dopamine signal; 360,000 compounds, 0.23% hits; active = potentiation of 50% or more; inconclusive = 30% to 50%; inactive = 30% or less;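 also: compound concentration not given in the record; tested on top of an EC20 dose of dopamine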
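PathHunter D2 cells, attached overnight at 37 deg C, received compound in DMSO plus dopamine at EC20 (50 nM final) for 90 min at 37 deg C. Beta-arrestin recruitment was read as luminescence after 1 h with detection reagent at ambient temperature.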
ClpP mod = qHTS Assay for Activators of ClpP; purified B. subtilis ClpP, FRET peptide cleavage, 20 min; ATP-dependent Clp protease proteolytic subunit (Bacillus subtilis (strain 168)), P80244; 340,000 compounds, 1.9% hits; Potency, µM (titrated, usually from 57.5 µM), for inactives: top-dose activity change, negative = active; active = well fitted falling curve with a large enough effect; inconclusive = small, poorly fitted or top-dose-only effect; inactive = no such curve, though single readings can be large or run the other way; also: potency is read from the fitted curve at half-maximal effect; the source files actives as falling curves though it sought activators and does not explain the sign; nearly all actives have a fitted effect of over 65% in size; many hits overshoot -100%
Target sequence (P80244 whole entry, looked up): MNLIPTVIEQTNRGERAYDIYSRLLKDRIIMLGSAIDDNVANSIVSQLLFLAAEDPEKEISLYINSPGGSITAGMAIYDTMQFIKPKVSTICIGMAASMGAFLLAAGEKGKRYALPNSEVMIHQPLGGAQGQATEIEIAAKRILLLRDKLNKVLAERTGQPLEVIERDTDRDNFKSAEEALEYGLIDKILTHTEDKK
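ClpP 10 microg/mL final, pH 8 Tris/KCl buffer with BSA, glycerol, Tween-20; compound pinned in; FRET-FV substrate; RT 20 min; Ex320/Em430; ΔFRET vs ADEP 5.8 microM, DMSO, no enzyme.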
gsp antag = qHTS for Antagonists of gsp, the Etiologic Mutation Responsible for Fibrous Dysplasia/McCune-Albright Syndrome: qHTS; AID 624288, 2012; 340,000 compounds, 0.4% hits; gsp-mutant cells, cAMP HTRF, 30 min; control for the full effect not named in the record; Potency, µM (doses to about 76.9 µM), for the others: at the top dose activity change, negative = inhibition, most hits filed as inhibitors; active = falling curve of any shape with a large fitted effect; inconclusive = falling curve, mostly with a smaller effect; inactive = flat or rising curve; cell line not stated here;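 also: intracellular cAMP measured with PDE inhibitor Ro 20-1724 present during compound exposure; potency is read from the fitted curve at half-maximal effect; % is scaled to controls: 0 for no effect and ±100 for the full control effect; nearly all actives have a fitted effect of over 65% in size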
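Cells in G418 medium, seeded 16-24 h, 37C; buffer exchange to DPBS + 1 mM CaCl2, 0.5 mM MgCl2, 0.05% BSA; cpds in DMSO + […] (300 uM stock), 30 min 37C; HTRF cAMP detection.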
gsp ag = qHTS for Agonist of gsp, the Etiologic Mutation Responsible for Fibrous Dysplasia/McCune-Albright Syndrome: qHTS; gsp mutant cells, cAMP HTRF, 30 min; control for the full effect not named in the record; 340,000 compounds, 0.13% hits; Potency, µM (series often up to 76.9 µM), for inactives: top-dose activation (cAMP increase), usual class: activators; active = well fitted activation curve with a large enough effect; inconclusive = small, poorly fitted or top-dose-only effect, or another doubt; inactive = no such curve, though single readings can be large or run the other way; cell line not stated here;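 also: phosphodiesterase inhibitor Ro 20-1724 added with compounds to block cAMP breakdown; potency is read from the fitted curve at half-maximal effect; nearly all actives have a fitted effect of over 60% in size; about a fifth of the inactives were tested at one dose only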
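Cells stably selected in G418 were plated at 2000/well, grown 16-24 hr, then given compounds in DMSO with the PDE inhibitor […] (300 uM solution added) for 30 min at 37C; cAMP was read by HTRF.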
Sfp inh = qHTS Assay for Inhibitors of Bacillus subtilis Sfp phosphopantetheinyl transferase (PPTase); Biochemical Sfp PPTase activity, qHTS; AID 1490, 2009; Potency, µM, for the others: max response, negative = inhibition, most hits filed as inhibitors; 310,000 compounds, 3.5% hits; 4'-phosphopantetheinyl transferase ffp (Bacillus subtilis), Q9F4F7; active = well fitted inhibition curve with a large enough effect; inconclusive = small, poorly fitted or top-dose-only effect, or another doubt; inactive = no such curve, though single readings can be large or run the other way;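 also: the enzyme is Sfp with the accession as filed and its product quenches rhodamine fluorescence; potency is read from the fitted curve at half-maximal effect; 0% = enzyme reaction without inhibitor and -100% = no enzyme wells; top concentration of the series not given in the record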
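Sfp 15 nM + cpd, 15 min RT; start w/ rhodamine-CoA 5 uM, BHQ-2-YbbR 12.5 uM (final); 50 mM Hepes pH 7.6, 10 mM MgCl2, 0.01% NP-40, 0.01% BSA; read 525/598 nm at 0 and 30 min.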
Menin-MLL FL inh = qHTS Assay for Inhibitors Targeting the Menin-MLL Interaction in MLL Related Leukemias: Competition With Fluorescein Labeled MLL-derived Peptide | Fluorescence polarization, fluorescein-MLL peptide displacement from menin | FP activity change, % at 61.4 µM | 290,000 tested, under 10 active; inconclusive = falling polarisation curve, or a change in total fluorescence; inactive = total fluorescence flat and polarisation flat or rising; no compound was filed as active; the % refers to the polarisation; negative = inhibition;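 also: % of control where 0% means no effect; inhibitors lower the polarisation; unlabelled MLL peptide was the positive control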
TRPV1 PAM = HTS Assay for Compounds that Act as Potentiators of the Vanilloid Receptor 1. Transient receptor potential cation channel subfamily V member 1 (Homo sapiens), Q8NER1. potentiation, % at 8.33 µM. AID 540277, 2011. TRPV1-expressing cells, Fluo-8 calcium influx, capsaicin EC20 potentiation; host cell line not named in the record; control for the full effect not named in the record. 320,000 compounds, 0.02% hits; active means potentiation above 80%; inconclusive means 30% to 80%; inactive means below 30%; also: 0% is about no effect
Target sequence (Q8NER1 whole entry, looked up): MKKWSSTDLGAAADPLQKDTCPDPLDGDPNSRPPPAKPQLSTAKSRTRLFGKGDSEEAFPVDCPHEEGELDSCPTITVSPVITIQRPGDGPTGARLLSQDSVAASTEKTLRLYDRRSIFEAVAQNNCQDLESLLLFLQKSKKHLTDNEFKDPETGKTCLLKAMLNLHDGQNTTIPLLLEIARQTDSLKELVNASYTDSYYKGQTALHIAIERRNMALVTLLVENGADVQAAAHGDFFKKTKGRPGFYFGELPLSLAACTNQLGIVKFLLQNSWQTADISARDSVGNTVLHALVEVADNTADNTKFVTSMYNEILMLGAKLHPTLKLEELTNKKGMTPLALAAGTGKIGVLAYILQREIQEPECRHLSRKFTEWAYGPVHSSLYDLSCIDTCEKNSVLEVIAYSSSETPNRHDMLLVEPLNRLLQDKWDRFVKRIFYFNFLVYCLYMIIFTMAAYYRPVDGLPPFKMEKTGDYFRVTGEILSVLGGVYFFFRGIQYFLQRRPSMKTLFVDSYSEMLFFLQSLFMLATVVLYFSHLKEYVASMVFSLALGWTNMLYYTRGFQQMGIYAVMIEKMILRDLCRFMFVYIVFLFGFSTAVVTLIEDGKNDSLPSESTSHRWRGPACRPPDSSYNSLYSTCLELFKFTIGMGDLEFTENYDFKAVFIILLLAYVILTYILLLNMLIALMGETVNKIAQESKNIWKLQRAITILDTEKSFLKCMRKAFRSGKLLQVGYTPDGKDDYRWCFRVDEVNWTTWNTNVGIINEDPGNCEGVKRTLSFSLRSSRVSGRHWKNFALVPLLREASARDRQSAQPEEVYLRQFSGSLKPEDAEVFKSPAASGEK
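Cells expressing TRPV1 were dye-loaded with Fluo-8 and read kinetically: 10 s baseline, 3 min after compound (agonist portion), then 2 min after EC20 capsaicin (allosteric enhancer portion). Calcium-bound dye fluorescence at 480/520 nm.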
Active calls of the source: *; u = inconclusive; x = no result given; & = joins results of further samples; [ ] = remark or other dose. This is a random part of the collection. Share with any hit: about 5.1%.

SMILES	D2 potentiator	ClpP mod	gsp antag	gsp ag	Sfp inh	Menin-MLL FL inh	TRPV1 PAM
CCOc1ccc(-n2c(N)c(C(=O)NCC3CCCO3)sc2=S)cc1 (stereo not given)	-20	2.1%	1%	-1%	50µM*	0.1	-4
Cc1ccccc1C(=O)Nc1ccc(S(=O)(=O)N2CCOCC2)cc1	1	-9.8%	6%	-4%[15.4 µM]	7%	-8.9	24
COC(=O)C1CN(S(=O)(=O)c2ccc(C)cc2)CCN1S(=O)(=O)c1ccc(C)cc1 (stereo not given)	1	0.5%	-3%	-6%	5%	3.3	-9
CCCCn1c(CN2CCN(C(=O)OCC)CC2)nc2c1c(=O)[nH]c(=O)n2C	-2	-2.8%	4%	-18%	4%	-1.0	-16
Cc1cccc(NC(=O)C23CCC(C)(/C(=N/O)C2)C3(C)C)c1 (stereo not given)	-6	0.7%	-2%	-3%	26%	4.3	5
COc1cc(NC(=O)c2ccc(N3CCCC3=O)cc2)cc(OC)c1	-8	52%	-13%	-1%	x	x	x
CCOC(=O)C(NC(=O)NCc1cccc(C(F)(F)F)c1)(OCC)C(F)(F)F (stereo not given)	-6	-0.9%	-1%	-14%	12%	-0.3	2
O=C(NCC(=O)N(CC1CCCO1)C1(C(=O)NC2CCCCC2)CCCCC1)c1ccccc1 (stereo not given)	-8	0.0%	-11%	16%	15%	0.7	-1
O=S(=O)(c1ccc(Br)cc1)N1CCN=C1SCc1cccnc1	-3	1.2%	-3%	-35%[inhibitor]	10%	-0.6	u
COc1ccccc1C(N)=S	-12	0.0%	19%	-3%[15.4 µM]	-16%	8.8	-8
Cc1cccc(C)c1N(CC(=O)NCc1ccc(F)cc1)C(=O)c1csnn1	2	-1.2%	16%	-24%	11%	2.3	u
Cn1c(=O)oc2cc(S(=O)(=O)NC3CCCCCCC3)ccc21	-8	-3.6%	14%	15%	3%	-0.1	-11
COC(=O)C1=CN(c2ccc(F)cc2)C=C(C(=O)OC)C1c1cccc([N+](=O)[O-])c1	-12	x	-4%	-11%	-7%	0.6	u
Cc1nc2sc(C(=O)O)c(N)c2c2c1COC(C)(C)C2	7	1.9%	-3%	5%[15.4 µM]	40µM*	2.0	2
Cc1nnc(SCCC(C)C)[nH]c1=O	-8	0.9%	0%	-11%	27%	0.3	0
CC(C)Cn1c(=O)c2ccccc2n2c(CCC(=O)NCC3CCCO3)nnc12 (stereo not given)	-10	-21%	-8%	u	11%	u	-5
Cc1ccccc1CN(C)C(=O)COC(=O)CSc1ccc([N+](=O)[O-])cc1	-3	-0.3%	-7%	0%[15.4 µM]	x	x	-8
Cc1cc(NC(=O)CN2CCC(n3nnc4cc(C(F)(F)F)ccc43)CC2)no1	-1	-0.2%	7%	11%	1%	5.0	29
CCCC(=O)Nc1cccc(C(=O)Nc2ccccc2OCC)c1	x	x	x	x	13%	3.7	5
O=C(O)C1CCN(c2nc(-c3ccccc3)c3cc(Br)ccc3n2)CC1	-5	-0.8%	u	46%[15.4 µM]	u	-0.5	1
CC(C)Cn1c(N)c(C(=O)CSc2nc3ccccc3c(=O)n2CCCN2CCOCC2)c(=O)n(C)c1=O	x	x	x	x	13%	1.9	-1
Cc1ccc(-c2nnc(N3CCN(C(=O)CN4C(=O)c5ccccc5C4=O)CC3)c3ccccc23)cc1	-6	2.6%	-3%	-5%	x	x	x
Cc1c(NC(=O)CSC2=C(C#N)C(c3ccccc3F)CC(=O)N2)c(=O)n(-c2ccccc2)n1C (stereo not given)	9	0.1%	-4%	-19%	14%	1.3	2
O=C(c1ccc2snnc2c1)N1CCSCC1	-5	4.0%	8%	3%	-7%	-1.1	-11
CCCCOC(=O)c1sc2nc(N3CCOCC3)c3c(c2c1N)CC(C)(C)OC3	-6	3.0%	18%	-47%[inhibitor]	u	1.2	7
COCCCNC(=S)N1CCN(S(=O)(=O)c2ccc(OC)cc2)CC1	-3	x	-16%	-23%[15.4 µM]	-5%	-4.7	-4
CC1=CC(=O)Nc2ncccc2O1	-4	3.5%	x	u	x	x	x
Cc1cc(NC(=O)CSc2nc3ccccc3n2CC(C)C)no1	8	-2.4%	7%	1%	8%	1.0	1
CC(CCc1ccco1)NC(=O)CCc1nnc2ccc(NCc3ccccc3)nn12 (stereo not given)	0	-4.4%	7%	17%	9%	x	6
COC(=O)C1(S(=O)(=O)C2(C(=O)OC)CCCC2)CCCC1	-1	-3.1%	-4%	-43%	18%	4.4	-4
CCC(C)[C@H](NC(=O)N1CCN(C)CC1)C(=O)OC (stereo not given in full)	-1	-0.5%	-1%	31%	8%	0.1	16
CC[C@@H](C)C(NC(=O)OC(C)(C)C)c1cn([C@@H](Cc2cc3ccccc3[nH]2)C(=O)N2CCN(C(=O)OC(C)(C)C)CC2)nn1 (stereo not given in full)	-2	0.8%	-19%	-25%	29%	-0.7	3
O=C(COC(=O)[C@H](Cc1ccccc1)NC(=O)c1ccco1)NCc1ccccc1	2	-0.7%	-8%	-5%	12%	-0.6	-6
COc1ccc(OC)c(-c2csc(NC(=O)Cc3ccccc3F)n2)c1	-4	x	-7%	-2%	2%	9.8	3
COc1ccc(-n2nc(C(=O)N3CCC(C#N)CC3)c3c4ccccc4n(C)c3c2=O)cc1	-7	-12%	4%	u	x	x	x
Nc1nnc(CC(=O)N/N=C/c2ccc(-c3ccccc3Cl)o2)s1	0	-13%	-9%	u	-2%	6.4	5
CCOC(=O)Cn1nnnc1C(CC)N(Cc1ccccc1)Cc1cc2cc(C)ccc2[nH]c1=O (stereo not given)	1	-3.7%	-22%	-19%	6%	-1.2	6
Cn1cccc2[nH]c(=O)nc1-2	-1	x	5%	23%[15.4 µM]	7%	3.1	9
COCCn1nnnc1C(c1ccccc1OC)N1CCN(C(=O)c2ccco2)CC1 (stereo not given)	-3	x	3%	11%	2%	-1.0	-3
O=C(COC(=O)c1ccc([N+](=O)[O-])s1)Nc1ccccc1	28	-1.5%	15%	3%	-4%	-0.7	-1
O=C(NCc1ccccc1)C1CCCN(c2cnccn2)C1 (stereo not given)	2	0.0%	7%	-4%	9%	x	14
O=C(c1ccccc1Sc1ccc([N+](=O)[O-])cc1Cl)N1CCOCC1	-4	x	-6%	-14%[15.4 µM]	3%	1.0	-4
CC(=O)NCCNC(=O)c1oc2ccccc2c1CSc1ncn[nH]1	-8	-0.7%	-12%	-23%	6%	-3.6	0
Cc1cc2ncn(C(=O)c3c(-c4ccccc4)noc3C)c2cc1C	-14	-1.1%	4%	-30%	4%	2.2	12
CCOC(=O)N1CCN(C(=O)CN2C(=O)CC(C)(C)S(=O)(=O)c3ccccc32)CC1	-9	-3.8%	5%	28%	8%	2.2	17
COc1ccc2occ(C(=O)c3ccccc3)c2c1	-9	-0.1%	3%	-1%[15.4 µM]	u	0.5	-4
CC(=O)Nc1cc(C(=O)OCC(=O)c2ccc(C)cc2)ccc1C	-23	1.3%	-12%	12%	-2%	7.7	-3
CCOC(=O)c1ccc(NC(=O)C2CCN(S(=O)(=O)CC)CC2)cc1	-5	0.7%	8%	-29%	5%	0.2	-12
c1ccc(-c2csc3ncnc(N4CCc5ccccc5C4)c23)cc1	-9	-4.2%	-3%	-17%	-16%	14	2
Cc1ccc(C2CN=NC23CCc2ccccc2C3=O)cc1 (stereo not given)	6	-1.9%	5%	21%	-17%	4.5	-15
COc1cc(CC(=O)NCCc2ccc(OCc3ccccc3)cc2)c([N+](=O)[O-])cc1OC	-3	1.5%	-5%	-6%	-1%	-2.5	-3
Cc1cccc(NC(=O)CC2Nc3cccc4cccc(c34)NC2=O)c1 (stereo not given)	21	-8.0%&-5.5%	-6%	2%	-5%	-0.8	8
CC(C)n1c(SCC(=O)N2CCN(C(=O)c3ccco3)CC2)nc2c1c(=O)n(C)c(=O)n2C	-2	x	11%	82%[15.4 µM]	26%	-0.1	-9
COc1cc(C2c3cc4c(cc3OC(C)(N3CCCC3)C2C)OCO4)cc(OC)c1OC (stereo not given)	-4	1.7%	19%	12%	x	x	x
O=C(On1c(-c2ccccc2)nc2ccccc2c1=O)c1ccco1	-11	-15%	2%	-17%	-28%	8.5	4
CC(C)NC(=O)N(C)C[C@H]1Oc2c(NC(=O)C3CC3)cccc2C(=O)N([C@H](C)CO)C[C@@H]1C	0	0.6%	12%	-25%	x	x	x
Cc1ccc(C(=O)C[n+]2ccc(-c3nnc4n3CCC4)cc2)cc1	-12	11µM*	3%	-7%	12%	1.3	2
CCC1CCC2(CC1)SCC(=O)N2c1ccccc1 (stereo not given)	-9	-1.3%	6%	u	10%	2.2	-10
COc1ccccc1-c1nnc(NC(=O)c2ccc(S(=O)(=O)N(C)C)cc2)o1	-4	0.4%	-4%	-64%[inhibitor]	-7%	1.3	1
COc1ccc(CNS(=O)(=O)c2ccc3c(c2)CCN3C(=O)C2CC2)cc1	-15	0.5%	-1%	-6%	2%	1.0	-5

3 compounds drawn at random from the list so far:
SMILES	D2 potentiator	ClpP mod	gsp antag	gsp ag	Sfp inh	Menin-MLL FL inh	TRPV1 PAM
COCCn1nnnc1C(c1ccccc1OC)N1CCN(C(=O)c2ccco2)CC1 (stereo not given)	-3	x	3%	11%	2%	-1.0	-3
O=C(COC(=O)c1ccc([N+](=O)[O-])s1)Nc1ccccc1	28	-1.5%	15%	3%	-4%	-0.7	-1
CC(C)NC(=O)N(C)C[C@H]1Oc2c(NC(=O)C3CC3)cccc2C(=O)N([C@H](C)CO)C[C@@H]1C	0	0.6%	12%	-25%	x	x	x
